Vaccinia mCherry – qHTS for Stage-Specific Inhibitors of Vaccinia Orthopoxvirus: mCherry Reporter Primary qHTS; Vaccinia virus mCherry reporter infection, fluorescence; about a quarter of the inactives have no number; Potency, µM (titrated, usually from 36.5 µM), for the others: at the top dose activity change, negative = inhibition, most hits filed as inhibitors; hit rate 0.63% among 310,000; active = well fitted inhibition curve with a large enough effect; inconclusive = small, poorly fitted or top-dose-only effect; inactive = no such curve, though single readings can be large or run the other way; tested in A549 cells; note: nearly all actives have a fitted effect of over 35% in size; inactives centre near -10
Vaccinia Venus – qHTS for Stage-Specific Inhibitors of Vaccinia Orthopoxvirus: Venus Reporter Primary qHTS | Vaccinia virus Venus reporter expression, fluorescence | Potency, µM (doses to about 36.5 µM), for the others: at the top dose activity change, negative = inhibition, actives largely listed as inhibitors | hit rate 0.46% among 330,000 | AID 720580, 2013; active means well fitted inhibition curve with a large enough effect; inconclusive means small, poorly fitted or top-dose-only effect; inactive means no such curve, though single readings can be large or run the other way; tested in A549 cells; note: nearly all actives have a fitted effect of over 30% in size; inactives centre near -10
An asterisk follows results filed as active; i = inactive; u = inconclusive; x = not tested or not shown; & = joins results of further samples; [ ] = another dose, or the depositor's remark. % is set by controls: 0 for no effect and ±100 for the full control effect; potency is the fitted concentration of half-maximal effect.

Molecule	Vaccinia Venus	Vaccinia mCherry
O=C(C[n+]1cc(-c2ccc(Cl)cc2)n2c1CCCCC2)c1ccccc1	-13%	i
CCSc1nnc(NC(=O)c2ccccc2)s1	-13%	i
COc1ccccc1-c1noc(-c2ccc(NC3CCCC3)c([N+](=O)[O-])c2)n1	-3%	-5%
O=C(Cc1coc2cc3c(cc12)CCC3)NC1CCCCCCC1	-17%	-2%
CCN1C(=O)c2ccccc2Sc2ccc(C(=O)NCCCN(CC(C)C)CC(C)C)cc21	6%&-10%	-2%&-1%
COc1ccc(OCCCn2c(CCNC(=O)C3CCCCC3)nc3ccccc32)cc1	-25%	-30%
COc1cc(SC)ccc1C(=O)N1CCc2ccccc21	-26%	-10%
c1ccc2c(c1)sc1ccccc12	-8%	-7%
CC1CN(S(=O)(=O)c2cccc(C(=O)Nc3ccccc3N3CCOCC3)c2)CC(C)O1 (stereo not given)	u	i
Cc1nnc(SCC(=O)Nc2nccs2)n1N	-3%	i
Cc1cc(=O)n(-c2ccccc2)n1-c1ccccc1	-2%	-6%
CCOc1ccc(CN2C(=O)c3ccccc3Sc3ccc(C(=O)NCc4ccc5c(c4)OCO5)cc32)cc1	-10%	-17%
Cc1ccc(OS(=O)(=O)c2cn(C)c(=O)n(C)c2=O)cc1C	-6%	i
Cc1ccc(C)c(NC(=O)COC(=O)c2cc(=O)c3ccccc3o2)c1	-4%	i
O=C(Oc1ccc(Cl)c2cccnc12)c1ccco1	-8%	x
CCC(C)C(NC(=O)C1CCC(C)CC1)C(=O)NCc1ccco1 (stereo not given)	-7%	-1%
CCCCOC(=O)c1ccc(S(N)(=O)=O)o1	-7%	-15%
Cc1cc(C(F)(F)F)nn1CC(=O)Nc1cccnc1	-2%	x
CCOc1ccccc1CN1CCNC(=O)C1CC(=O)NC1CCCCCCC1 (stereo not given)	-14%	-14%
O=C(c1ccc(Cn2c(=S)[nH]c3ccccc3c2=O)cc1)N1CCN(c2ccccn2)CC1	u	-24%
COc1ccc(Cl)cc1NC(=O)c1cc(C)nn1-c1ccccc1	-9%	i
COc1ccc([N+](=O)[O-])cc1NC(=O)Cc1c(Cl)cccc1Cl	0%	-11%
CC(C)OCCCNC(=O)Cn1nc(-c2ccccc2)ccc1=O	-14%	-6%
NC(=O)CCCCn1ccc(NC(N)=NCC(F)(F)F)n1	-12%	-3%
COc1ccc(N=CC2CCCCC2=O)c([N+](=O)[O-])c1 (stereo not given)	-22%	-26%
COc1ccc(Br)c(Cn2c(C)c(C(=O)NCc3cccs3)sc2=O)c1	-4%	5%
CC1CCN(c2oc(/C=C/c3ccc(F)cc3)nc2C#N)CC1	-8%	-16%
CCOc1ccc(NC(=O)C(Cc2ccccc2)NC(=O)C2CCCCC2)cc1 (stereo not given)	-1%	-12%
COC(=O)c1ccc(-c2sc3nc(N4CCOCC4)c4c(c3c2N)CCCC4)o1	-12%	-1%
O=C(CSc1ccc(-c2ccncc2)nn1)N1CCN(c2ccccc2)CC1	-9%	-5%
CCOc1cc(N2CCOCC2)c(OCC)cc1NC1=NCCCCC1	-14%	x
Cc1c(C(=O)OCc2ccccc2)nnn1-c1nonc1N	-11%	-15%[1.46 µM]
O=C1Nc2ccc(Cl)cc2C12OCCCO2	10%	-16%
CCCCc1ccc(S(=O)(=O)NC(=O)C2(C)CCN2C(=O)c2c(C)noc2C)cc1 (stereo not given)	-9%	6%
CCOC(=O)Cc1ccc(NC(=O)N2CCSc3ccccc32)cc1	-13%	-14%
Cc1ccc(Cl)cc1N1CCN(C(=O)C2CCN(S(=O)(=O)c3cn(C)cn3)CC2)CC1	-9%	-15%
CCOCCc1nn2c(=O)cc(COC(=O)c3ccc(NC(=O)c4cccs4)cc3)nc2s1	-1%	3%
O=c1[nH]c(=O)n(C2CCCCCC2)c(O)c1C=NCc1ccc(F)cc1	-12%	-23%
CCCCC(=O)Nc1cc(NC(=O)CC)ccc1Cl	1%	-10%
COc1ccccc1CNC(=O)CCCc1ccccc1	4%	-11%
O=C(CNC(=O)c1ccc2ccccc2c1)NCc1ccccc1F	-6%	i
Cc1ccc(/C=C/C(=O)Nc2ccncc2)o1	-15%	i
Clc1cccc(Cl)c1CSc1nnc(/C=C/c2ccccc2)o1	u	x
O=c1[nH]c2ccccc2cc1-c1nnn(-c2ccccc2)n1	-26%	-12%
O=[N+]([O-])c1ccccc1/C=N/N1CCN(c2ccccn2)CC1	-9%	-10%
O=C(COC(=O)c1ccc(-c2ccc([N+](=O)[O-])cc2)o1)NC(=O)NC12CC3CC(CC(C3)C1)C2	-19%	-19%
CCN(CC(=O)NC(C)C)C(=O)[C@@H](NC(=O)c1ccco1)C(C)C	-17%	-11%
COc1cc(C(=O)Nc2ccc(NC(=O)C3CCCCC3)nc2)cc(OC)c1OC	-3%	-15%
Cc1cc(C)cc(NC(=O)CSc2cc(C(=O)c3nccn3C)c3ccccc3n2)c1	-5%	-12%
CCOP(=O)(OCC)C(NC(=O)c1ccc(C)cc1)C(Cl)(Cl)Cl (stereo not given)	-12%	-16%
Cc1cccc(C)c1NC(=O)CN(c1c(C)cccc1C)S(C)(=O)=O	-6%	i
Cc1ccc(CN(C)C(=O)C2CCN(C(=O)Nc3ccccc3)CC2)o1	3%	-2%
COc1cccc(N2CCN(C(=O)CCS(=O)(=O)c3ccc4c(c3)oc(=O)n4C)CC2)c1	-4%&-5%	-27%&-16%
COc1cc(Br)c(C2CC(=O)Nc3cc(OC)c(OC)c(OC)c32)cc1OC (stereo not given)	-7%	-4%
COc1ccccc1C(=O)OCCCN=C1NS(=O)(=O)c2ccccc21	-4%	-13%
O=C(Nc1ccccc1Cl)C1CCN(c2nc3ccccc3[nH]2)CC1	-15%	i
O=C(Nc1ccnn1C1CCN(C(=O)c2ccc(Cl)c(F)c2)CC1)C1CCOC1 (stereo not given)	-11%	i
Cc1ccc(S(N)(=O)=O)cc1	-9%	i
COc1ccc(N2CCOCC2)c(NC(=O)c2ccco2)c1	-10%	-14%
Cc1cc(C(=O)COC(=O)c2cccc(NS(C)(=O)=O)c2)c(C)n1CC1CCCO1 (stereo not given)	-4%	-12%

Laid out differently: 7 of the compounds above.
Every second line gives: Vaccinia Venus, Vaccinia mCherry
> Cc1cc(C(=O)COC(=O)c2cccc(NS(C)(=O)=O)c2)c(C)n1CC1CCCO1 (stereo not given)
→ -4%, -12%
> O=C(Nc1ccccc1Cl)C1CCN(c2nc3ccccc3[nH]2)CC1
→ -15%, i
> Cc1ccc(CN(C)C(=O)C2CCN(C(=O)Nc3ccccc3)CC2)o1
→ 3%, -2%
> Cc1ccc(S(N)(=O)=O)cc1
→ -9%, i
> O=C(Nc1ccnn1C1CCN(C(=O)c2ccc(Cl)c(F)c2)CC1)C1CCOC1 (stereo not given)
→ -11%, i
> Cc1cc(C)cc(NC(=O)CSc2cc(C(=O)c3nccn3C)c3ccccc3n2)c1
→ -5%, -12%
> O=C(COC(=O)c1ccc(-c2ccc([N+](=O)[O-])cc2)o1)NC(=O)NC12CC3CC(CC(C3)C1)C2
→ -19%, -19%

Going on with the list.
Molecule	Vaccinia Venus	Vaccinia mCherry
N[C@@H](Cc1cnc[nH]1)C(=O)Nc1ccc2ccccc2c1	-13%	-5%
CCOc1ccc(NS(=O)(=O)c2ccc3[nH]c(=O)oc3c2)cc1	-5%	-28%
Cc1cccc(OCC(=O)O/N=C(\N)Cc2ccc(Cl)cc2)c1	-10%	x
CC(=O)c1ccc(NC(=O)CCc2c(C)nc3ncnn3c2C)cc1	-3%	-12%
CC(C)[C@H](Nc1ccc(C(F)(F)F)cc1[N+](=O)[O-])C(=O)O	-8%	i
Cc1cc(Cl)ccc1NC(=O)C(=O)NCc1ccco1	u	-2%
CCOC(=O)c1c(C)nn(-c2ccc(NC(=O)CSCC(=O)O)cc2)c1C	-12%[7.34 µM]	-7%[7.34 µM]
O=C(CN1CCC(NC(=O)Nc2ccccc2)CC1)Nc1ccc([N+](=O)[O-])cc1	-3%	-14%
O=C(OC(C(=O)NCc1ccc2c(c1)OCO2)c1ccccc1F)c1ccco1 (stereo not given)	-14%	-19%
CCN1CCN(c2ccc(S(=O)(=O)N3CCOCC3)cc2NC(=O)COc2ccc(F)cc2Cl)CC1	-8%	i
CCOC(=O)C1CCN(C(=O)COc2ccc(C(=O)c3ccccc3)cc2)CC1	-2%	i
Cn1nnc(NC(=O)c2cccs2)n1	-3%	i
CC1CC(C)CN(C(=O)Cn2nnc(-c3ccc(Br)cc3)n2)C1 (stereo not given)	0%	9%
COc1ccc2oc(C(=O)OCC(=O)N3CCN(C(C)=O)CC3)c(C)c2c1	-3%	1%
Cc1cccc(C)c1NC(=O)CN1CCNCC1	-24%	x

In another format: results already given
Under each structure: Vaccinia Venus, Vaccinia mCherry
O=C(CSc1ccc(-c2ccncc2)nn1)N1CCN(c2ccccc2)CC1
  -9%, -5%
CCOc1cc(N2CCOCC2)c(OCC)cc1NC1=NCCCCC1
  -14%, x

(listing goes on)
Molecule	Vaccinia Venus	Vaccinia mCherry
CCOc1ccc(/C=C(\C#N)C(=O)NCC2CCCO2)cc1OCC (stereo not given)	-1%	-11%
CCOc1ccc(C(=O)NCC2CCN(CC3CCCCC3)CC2)cc1	-14%	-15%
O=C(Nc1ccccc1)c1cccnc1Nc1ccccc1	-14%	-14%[1.46 µM]
Cc1ccc(NC(=O)c2cncc(Br)c2)nc1	-16%	i
COc1ccccc1C(=O)NC(=O)COC(=O)c1ccc(Cl)cc1[N+](=O)[O-]	-7%	-15%
Cc1ccc(OCC(=O)NNC(=O)Nc2ccc(Cl)cc2)c(Br)c1	-11%	-3%
O=C(Nc1cnc(N2CCN(c3ccccc3)CC2)c(C(=O)O)c1)c1cccs1	-5%	3%
Clc1cccc(Nc2nnc(-c3ccccc3)c3ccccc23)c1	-5%[60.7 µM]	-15%
COc1ccc(NC(=O)C2CCC(CNc3c(N4CCOCC4)c(=O)c3=O)CC2)cc1Cl (stereo not given)	3%	i
CCC(C)(C)c1nnc(NC(=O)c2cccc([N+](=O)[O-])c2)s1	-5%	-7%
Cn1nccc1C(=O)OCC(=O)Nc1cccc(Cl)c1	-8%	-13%
Cc1ccc2nc(CSc3nnc(NC(=O)COc4ccccc4F)s3)cc(=O)n2c1	-8%	-3%
CCCCn1c(N)c(N(CC(C)C)C(=O)Cn2c(=O)oc3ccccc32)c(=O)[nH]c1=O	-4%	-2%
Cc1cc(OCC(=O)OCC(=O)NCc2ccco2)ccc1Cl	-1%	-4%
Cc1ccc(-c2noc(-c3ccc(NCc4cccnc4)c([N+](=O)[O-])c3)n2)cc1	-1%	-5%
O=C(NCCc1ccccc1)C(=O)NCC(c1cccnc1)N1CCN(c2ccc(F)cc2)CC1 (stereo not given)	u	-29%
COC(=O)N/N=C/c1cc(N=Nc2ccccc2Cl)ccc1O	-18%[7.34 µM]	-5%[7.34 µM]
Clc1c(-c2nnc3n2CCCCC3)sc2ccccc12	-28%	x
Cc1c(Cl)cccc1NC(=O)NCc1ccc(F)cc1	-16%	-5%
COc1ccccc1-c1cccc(-c2nc(C(=O)N3CCCCC3)cc3c2[C@@H](CCO)N(S(=O)C(C)(C)C)C3)c1 (stereo not given in full)	-4%	i
Cc1nc2c(sc(=S)n2Cc2ccco2)c(=O)n1CC(=O)Nc1ccccc1	11%[7.34 µM]	-3%[7.34 µM]
CC1(C)C=C(c2ccc(C=O)s2)CC(C)(C)N1	-7%	-11%
C=CCNC(=O)COc1c(C)ccc(C)c1C	-21%	i
CC(=C/c1ccccc1)/C=N/n1c(-c2ccncc2)n[nH]c1=S	-14%	-4%
O=C(NC1CCCC1)C1CCC(CNS(=O)(=O)c2ccc(F)cc2)CC1 (stereo not given)	7%[7.34 µM]	5%[7.34 µM]
Cc1c(C(=O)Nc2ccccc2Br)oc2ccc(S(=O)(=O)N3CCCCC3)cc12	u	-21%
Cn1cc(CNC(=O)C2CCC(=O)N(Cc3cccc(C(F)(F)F)c3)C2)cn1 (stereo not given)	-12%	-10%
Cc1cccc(C(=O)NC(=O)Nc2ccc(-n3nc(C(F)(F)F)cc3C(F)(F)F)cc2)c1	-9%	2%
COc1ccc(/C=c2\s/c(=C/C(=O)c3ccc(C)cc3)[nH]c2=O)c(OC)c1	-8%	-2%
Cc1ccc(S(=O)(=O)n2nc(OC(=O)c3ccccc3C)cc2N)cc1	-6%	-14%
COc1ccc2[nH]c3c(=O)n(CCCC(=O)NC4CCCCC4C)c(=S)[nH]c3c2c1 (stereo not given)	1%	-9%
COc1ccc(-c2ccc(SCC(=O)c3cccs3)nn2)cc1OC	-19%	-10%
CSc1ncc2[nH]c(C(O)c3ccccc3)nc2n1 (stereo not given)	-23%	-10%
Cc1ccc(N2CN(Cc3ccco3)CNC2=S)c(C)c1	-14%	-14%

Screening data (PubChem BioAssay)

This is a random part of the collection. About 0.87% of those tested had a hit in this group.
